ugtP null kill: growth inhibition of ugtP-null S. aureus, primary screen, RN4220 ugtP deletion, OD600; 16 h; some inactives read as strong as hits; growth inhibition, % (concentration not given with the values); hit rate 0.54% among 330,000; AID 1259309, 2017;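 active = z-score under -3 and OD600 up to 0.15 on both plates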;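 also: plate controls were untreated wells for no effect and antibiotic for full effect; wells of about 80 µL received 100 nL stock; the first replicate is given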
Sa RN4220 lethal: growth inhibition of S. aureus RN4220, primary screen, OD600. 16 h. hit rate 0.33% among 330,000. inhibition, % (no concentration beside the values);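 active = z-score of -3 or lower and OD600 up to 0.18 on both plates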;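 also: plate controls were untreated cells for no effect and reference antibiotic for full effect; stock transfer was 100 nL into about 80 µL; one replicate is shown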
PrP 5UTR inh: inhibition of PrP 5' UTR reporter expression. cell-based PrP 5' UTR mRNA reporter, plate reader. inhibition, % (concentration not given with the values). hit rate 0.35% among 340,000;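 active = every replicate at 50% or more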;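 also: 0 = median of the neutral control wells; tested in H4 reporter cells; numbers are from one replicate; inactives centre near -14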
Mtb hypoxia inh: PubChem AID 1159583. fluorescence inhibition, % (no concentration beside the values). M. tuberculosis hypoxia-regulated fluorescent reporter, fluorescence. hit rate 0.1% among 300,000;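 active = 35 to 45% if threefold the growth effect, above 45% if 1.5-fold the growth effect; inactive = the rest, general growth blockers included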;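 also: wells of about 50 µL received 100 nL stock; 0% = vehicle wells and 100% = reference inhibitor wells; whole bacteria with a GFP reporter of the hypoxia response; strong numbers were not always called active; many hits fall short of the cut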
Autofluor counter: flagged as autofluorescent in microsphere protease counterscreen. hit rate 3.1% among 360,000. AID 624483. compound autofluorescence counterscreen, microsphere flow cytometry; stronger effect = higher value. fluorescence intensity (test concentration not listed);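 active = at least 3 SD above the mean of all compounds, about 16000 in these data; inconclusive = too few beads counted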;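 also: 100 nL of 1 mM stock went into each well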
BJeLR viability: MLPCN primary cell-based screen for lethality selective to Ras in HRASV12 cells | BJeLR (HRASV12) viability, CellTiter-Glo ATP luminescence, 48 h; reference of the scale not given here | inhibition, % (no concentration beside the values) | AID 1554, 2009 | hit rate 0.17% among 300,000;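 active = replicate mean above 50%; inconclusive = above 50% but judged a plate artefact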;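 also: 50 nL library stock added to about 25 µL; numbers are from one replicate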
Mtb hypoxia inh growth: recorded beside Mtb hypoxia inh, whose call it bears; growth inhibition, %; measured here: M. tuberculosis growth (absorbance);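 0% = vehicle and 100% = reference antibiotic; read after six days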
Active calls of the source: *; ? = inconclusive; / = not tested or not shown.

SMILES | ugtP null kill | Sa RN4220 lethal | PrP 5UTR inh | Mtb hypoxia inh | Mtb hypoxia inh growth | Autofluor counter | BJeLR viability
Cc1ccc2nc(SCC(=O)N/N=C/c3ccco3)cc(C)c2c1 | / | / | -12 | / | / | 3727 | 7
O=C(NNC(=O)C1C2C=CC(C2)C1C(=O)O)c1cc(Cl)ccc1O (configuration not stated) | -3 | -0.4 | -11 | -12 | -8 | 5923 | /
O=C(CCCSc1nc2ccccc2c(=O)[nH]1)c1ccccc1 | 4 | 1.3 | -1 | 1 | 2 | 4288 | 2
CS(=O)(=O)N(CC(=O)N1CCCCC1)C1CCCCC1 | 4 | 0.8 | -24 | 10 | -2 | 9498 | -4
Cc1oc(C)c(C(=O)O)c1C(=O)O | 0 | 1.8 | -16 | 8 | -4 | 4254 | -4
CSc1nc(SCC(=O)O)c2sc3nc(-c4ccccc4)c4c(c3c2n1)CCC4 | 10 | 10 | -14 | 7 | 3 | 4135 | 2
Cc1cccc(/C=N/NC(=O)Cn2nnnc2N)n1 | / | / | -14 | / | / | 4151 | 6
CCC(=O)Nc1ccc2c(c1)ncn2-c1ccc(OC)cc1 | 1 | 6.1 | -21 | 7 | 9 | 3990 | 1
O=C(NCc1cccs1)c1cnn2cccnc12 | 4 | 0.7 | -12 | 1 | 6 | 5947 | -15
O=C(Nc1ccc(S(=O)(=O)N2CCCCC2)cc1)C1CCCO1 (configuration not stated) | 7 | -0.5 | -17 | -2 | 11 | 3950 | 2
COc1ccc(C(=O)Nn2c(C)nnc2-n2nc(C)cc2C)cc1OC | 0 | 5.3 | -10 | 0 | 4 | 4555 | -9
O=C(Nc1nccs1)C1C2/C=C\CCCCC21 (configuration not stated) | 2 | 3.2 | 2 | / | / | 2214 | 0
CC(=O)Nc1ccc(C(=O)NN=Cc2ccccc2OCc2ccccc2)cc1 | 0 | 7.5 | / | -5 | 1 | / | /
O=C(NCCNc1ccc([N+](=O)[O-])cc1)c1cccc(Br)c1 | -6 | 1.8 | -34 | 3 | -2 | 8198 | 0
O=C(NCCc1cccc(F)c1)[C@@H]1CSC2c3ccccc3C(=O)N21 (some centres not stated) | -10 | -4.1 | -14 | / | / | 4516 | 4
CCCc1nc2c(=O)n(C)c(=O)[nH]c2n1CCC | -4 | 2.7 | -9 | / | / | 2137 | 2
O=C(Oc1c(Cl)cc(Cl)c2ccccc12)N1CCCC1 | 47 | 7.1 | -39 | 17 | 23 | 22642* | 10
C[C@@H]1CC[C@]2(O[C@H](CCO)C[C@@H](O)[C@@H]2O)O1 | / | / | -3 | / | / | 3189 | 11
OCC1(CO)COC2(CCCC2)N1 | 1 | -4.9 | -20 | -4 | -3 | 11765 | 4
Nc1sc2c(c1C(=O)c1ccccc1)CCCC2 | -4 | 5.9 | -23 | 10 | 3 | / | -1
CCOC(=O)CSc1nc(C)c2cc(C)c(C)cc2n1 | 11 | 8.4 | -25 | 2 | 7 | 5010 | 4
COc1ccccc1C(=O)NCC(=O)NC1CCCc2ccccc21 (configuration not stated) | 5 | -1.4 | 16 | 0 | 1 | 4144 | 0
Cc1nnc2c(NC3CCCC3)nc3ccccc3n12 | -6 | 3.0 | -2 | 1 | 1 | 4187 | -4
Cn1nc(C(=O)Nc2cccc(S(=O)(=O)N3CCOCC3)c2)c2ccccc2c1=O | 1 | 0.2 | -22 | 6 | -2 | 6418 | /
COc1ccccc1C(=O)N=Nc1c(O)[nH]c2ccc([N+](=O)[O-])cc12 | -13 | 14 | -52 | -16 | 0 | 2440 | /
CC1CCN(C(=O)c2ccc(NS(=O)(=O)c3ccccc3)cc2)CC1 | 7 | 0.8 | 18 | 10 | 15 | 4662 | -2
C=CCn1c(SCC(=O)c2ccccc2)nnc1-c1cc2ccccc2o1 | -6 | -5.0 | -11 | / | / | 2557 | -5
CCOC(=O)C1CCCN(CCC(=O)Nc2cccc(C)c2)C1 (configuration not stated) | 3 | -0.2 | -13 | 3 | 8 | 5063 | -18
Cc1ccsc1/C=N/n1c(COc2ccccc2)n[nH]c1=S | / | / | -11 | / | / | 2059 | 0
CCOC(=O)c1c(N)sc2c1CCC1C(=O)N(C3CCCCC3)C(=O)C21 (configuration not stated) | -5 | -16 | -6 | -4 | 6 | 2075 | 1
CC(=O)Nc1ccc(S(=O)(=O)NCCc2cn3nc(C)c(C)nc3n2)cc1 | -3 | -1.5 | -13 | -3 | 10 | 4082 | 4
Cc1ccc(S(=O)(=O)Oc2ccc(C=C(NC(=O)c3ccccc3)C(=O)Nc3ccccc3)cc2)cc1 | -9 | 3.5 | / | 9 | 17 | / | /
CCCCCCCCOC(=O)c1ccc(N)cc1 | 17 | 7.5 | -17 | -6 | -1 | 4265 | 1
CC(C)(C)n1nc2c(c1NC(=O)Cc1cccc3ccccc13)CS(=O)(=O)C2 | 3 | 0.9 | -19 | 10 | 8 | 4416 | 1
Cc1cccc(NC(=S)NC(=O)/C=C/c2ccco2)n1 | 43 | 4.4 | -34 | / | / | 2545 | -3
N#CCc1nn2c(-c3ccccc3)ccnc2c1C#N | 0 | -0.6 | 6 | -5 | 7 | 4983 | -11
CCOC(=O)C(CCOc1cccc(CC)c1)C(=O)OCC | 5 | 3.8 | -6 | -3 | -4 | 3400 | 2
O=C(COC(=O)COc1cccc(C(F)(F)F)c1)Nc1ccc(N2CCOCC2)cc1 | 5 | -1.8 | -17 | -4 | -5 | 3739 | /
COc1cc(/C=C/C(=O)OCN2C(=O)c3ccccc3C2=O)ccc1OC(F)F | 6 | 0.8 | -5 | 3 | 1 | 5093 | 2
COc1cc(NC(=O)CNC(=O)Cn2ccc3ccccc3c2=O)cc(OC)c1OC | -4 | 4.0 | -35 | -9 | 5 | 3393 | 0
Cc1nn(Cc2ccc(F)cc2)c(Cl)c1C=NNC(=O)c1cccnc1 | 9 | 4.3 | / | -2 | 13 | / | /
CCOC(=O)c1ccc(S(=O)(=O)Nc2cc(S(=O)(=O)N3CCOCC3)ccc2O)cc1 | 6 | 16 | -11 | 11 | 4 | 3914 | /
Cc1cc(NC(=O)c2cccs2)n(-c2nc3ccccc3[nH]2)n1 | 4 | 2.1 | 6 | 12 | 11 | 2452 | -9
CC1CN(C(=S)SCC(=O)c2ccc([N+](=O)[O-])cc2)CC(C)O1 (configuration not stated) | 0 | 2.5 | -7 | 3 | 0 | 4078 | 9
COc1cccc(O)c1CN1CCCC(C(=O)c2cccc(C(F)(F)F)c2)C1 (configuration not stated) | 7 | 1.5 | -26 | 4 | 6 | 4196 | -1
CC(C)(C)S(=O)(=O)/C(C#N)=N/Nc1ccc(Cl)cc1 | / | / | 1 | / | / | 3662 | 18
CCOc1ccc(NC(=O)NC(C)CC)cc1 (configuration not stated) | -4 | 4.2 | -8 | 3 | 5 | 2562 | 15
CC1CCC2C(=O)N(c3ccc(S(=O)(=O)c4ccccc4)cc3)C(=O)C2C1 (configuration not stated) | 6 | 2.5 | -25 | 7 | 0 | 2165 | -4
O=Cc1ccc(Oc2ncccn2)cc1 | -1 | 2.5 | -9 | 6 | 3 | 3841 | 5
Cc1ccc2cc3cc(C(=O)N4CCN(Cc5ccccc5)CC4)sc3nc2c1 | 5 | 2.5 | -14 | 18 | 12 | 4372 | -16

Next section:
SMILES | ugtP null kill | Sa RN4220 lethal | PrP 5UTR inh | Mtb hypoxia inh | Mtb hypoxia inh growth | Autofluor counter | BJeLR viability
COc1ccc(OCC(O)CNCCOc2ccccc2OC)c(C(C)(C)C)c1 (configuration not stated) | -23 | -7.1 | -6 | 7 | 4 | 3648 | -13
COc1ccc(NC(=O)CCC(=O)Nc2cc(OC)c(NC(=O)c3cccs3)cc2OC)cc1 | 12 | 3.0 | -24 | 14 | 7 | 5782 | -11
Cc1cc(C)c(NC(=O)CN)c(C)c1 | 5 | -2.1 | -33 | 3 | 4 | 2522 | 0
Cc1cc(C)cc(NC(=O)NCc2nnc(SCc3ccccc3)n2C)c1 | 4 | -6.4 | -18 | / | / | 3985 | -2
CCN(CC)Cc1csc2ccc(Br)cc12 | 7 | 0.8 | -53 | / | / | 2405 | 6
CC1CCC(NC(=O)c2ccc(-n3cncn3)c([N+](=O)[O-])c2)CC1 (configuration not stated) | 4 | 0.2 | -33 | -4 | 6 | 5760 | -7
N#CC1=C(N)SC(N)=C(C#N)C1c1ccc([N+](=O)[O-])cc1 | -2 | 7.0 | 13 | 19 | 5 | 3528 | 5
Cc1nc(Nc2ccccc2Br)c2nnn(Cc3ccccc3)c2n1 | 11 | 1.1 | -16 | -1 | -1 | 3545 | -6
CC(=O)Nc1ccc(S(=O)(=O)NCc2ccc(C(=O)NCCCN3CCC(C)CC3)cc2)cc1 | 4 | 2.5 | -23 | 1 | -1 | 6262 | 5
COc1cc(NC(=O)CSc2nncn2C)cc(OC)c1OC | 12 | 9.3 | 28 | -8 | -1 | 4445 | -10
O=C(CCN1C(=O)/C(=C/c2ccccc2)SC1=S)Nc1ccccn1 | 0 | 0.5 | -21 | 2 | 3 | 4915 | 0
COc1ccc(COc2cc(-c3cccc(OC)c3)nc3ccc(NC(=O)c4ccc(OC)cc4)cc23)cc1 | 13 | 2.7 | -29 | -7 | 6 | 3479 | 0
CCCNS(=O)(=O)c1cccc(C(=O)OCc2cc(=O)oc3cc(OC)ccc23)c1 | -8 | 8.6 | 57* | 1 | 11 | 3931 | 20
CNC(=S)Nc1ccc(C)c(NC(=S)NC)c1 | 2 | -3.6 | -20 | 13 | -8 | 4222 | 6
CC1(C)SC2C(C(=O)O)N=C(Cc3ccccc3)N2C1C(=O)O (configuration not stated) | 4 | 3.7 | 2 | 3 | 2 | 3559 | /
COc1cccc(-c2cc(C(=O)N/N=C/c3ccc(OC)c(COC(C)=O)c3)c3ccccc3n2)c1 | / | / | -13 | / | / | 2406 | 2
COc1ccccc1CCNC(=O)c1c(C)nn(CC(C)C)c1Cl | 7 | 1.6 | -17 | -2 | -2 | 4676 | 11
O=C(Cn1nc(C(F)(F)F)c2c1CCCC2)NCCN1CCOCC1 | 11 | 5.4 | -21 | 4 | -1 | ? | 4
O=C(NC1CCC(CC2CCC(NC(=O)C(Cl)Cl)CC2)CC1)C(Cl)Cl (configuration not stated) | -1 | 0.1 | -23 | 11 | -1 | 3966 | 7
CN(CC(=O)Nc1cccc(F)c1)C(=O)CCN1C(=O)C2CC=CCC2C1=O (configuration not stated) | 4 | 0.1 | -3 | 4 | -5 | 3250 | /

Given with two lines to a compound: 10 of the compounds above.
Every second line gives: ugtP null kill | Sa RN4220 lethal | PrP 5UTR inh | Mtb hypoxia inh | Mtb hypoxia inh growth | Autofluor counter | BJeLR viability
> Cc1ccc2nc(SCC(=O)N/N=C/c3ccco3)cc(C)c2c1
    / | / | -12 | / | / | 3727 | 7
> O=C(NNC(=O)C1C2C=CC(C2)C1C(=O)O)c1cc(Cl)ccc1O (configuration not stated)
    -3 | -0.4 | -11 | -12 | -8 | 5923 | /
> O=C(CCCSc1nc2ccccc2c(=O)[nH]1)c1ccccc1
    4 | 1.3 | -1 | 1 | 2 | 4288 | 2
> CS(=O)(=O)N(CC(=O)N1CCCCC1)C1CCCCC1
    4 | 0.8 | -24 | 10 | -2 | 9498 | -4
> Cc1oc(C)c(C(=O)O)c1C(=O)O
    0 | 1.8 | -16 | 8 | -4 | 4254 | -4
> CSc1nc(SCC(=O)O)c2sc3nc(-c4ccccc4)c4c(c3c2n1)CCC4
    10 | 10 | -14 | 7 | 3 | 4135 | 2
> Cc1cccc(/C=N/NC(=O)Cn2nnnc2N)n1
    / | / | -14 | / | / | 4151 | 6
> CCC(=O)Nc1ccc2c(c1)ncn2-c1ccc(OC)cc1
    1 | 6.1 | -21 | 7 | 9 | 3990 | 1
> O=C(NCc1cccs1)c1cnn2cccnc12
    4 | 0.7 | -12 | 1 | 6 | 5947 | -15
> O=C(Nc1ccc(S(=O)(=O)N2CCCCC2)cc1)C1CCCO1 (configuration not stated)
    7 | -0.5 | -17 | -2 | 11 | 3950 | 2

Compound activity: PubChem, several laboratories
